# HPGD inh: blocks human HPGD enzyme activity; P15428; purified HPGD, NADH fluorescence kinetic, PGE2 substrate; Potency, µM, for the others: at the highest dose activity change, negative = inhibition, hits mostly inhibitors; 150,000 tested, 4.3% active; active = well fitted inhibition curve with a large enough effect (not every such curve was filed as active); inconclusive = small, poorly fitted or top-dose-only effect, or another doubt; inactive = no such curve, though single readings can be large or run the other way;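 also: top concentration of the series not given in the record; plate controls included wells without enzyme; inactives centre near -10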
# Target sequence (P15428 whole entry, looked up): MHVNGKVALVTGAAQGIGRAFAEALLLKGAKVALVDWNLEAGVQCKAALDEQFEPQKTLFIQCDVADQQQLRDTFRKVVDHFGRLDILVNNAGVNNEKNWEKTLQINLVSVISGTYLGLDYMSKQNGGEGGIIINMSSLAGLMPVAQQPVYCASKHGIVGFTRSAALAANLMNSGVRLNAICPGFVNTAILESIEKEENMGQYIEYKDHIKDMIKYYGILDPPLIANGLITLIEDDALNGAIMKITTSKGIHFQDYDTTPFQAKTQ
#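 20 nM HPGD preincubated 15 min at room temperature with compound in 50 mM Tris-HCl pH 8, 0.01% Tween 20. Started with 1 mM NAD+ and 30 uM prostaglandin E2; NADH fluorescence (360/450 nm) read 5 times over 30-s intervals, last minus first.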
# Numbers without * were called inactive; ? = inconclusive. % is scaled to controls: 0 for no effect and ±100 for the full control effect; potency is read from the fitted curve at half-maximal effect. Not all compounds are listed, so the mix of outcomes need not match the whole.
no.	SMILES	HPGD inh
1	CCOc1cccc(CNc2ccc(O)cc2)c1OCc1ccc(Cl)cc1	-19.1%
2	CCOC(=O)c1c(NC(=O)COc2ncnc3sccc23)sc2c1CCC2	6.7%
3	Cc1cc2nnc(SCC(=O)NCc3cccs3)n2c(N)n1	-10.8%
4	C/C(=N\O)c1ccc2c3ccccc3n(C)c2c1	?
5	COC(=O)CCC(=O)Nc1ccccc1C(=O)Nc1ccccc1	-9.5%
6	CCn1c(SCC(=O)Nc2ccccc2N2CCOCC2)nnc1-c1ccccc1O	-6.8%
7	CC(Sc1nc2nn(-c3ccccc3)c(=O)c-2c2n1CCCCC2)C(N)=O (centres undefined)	-3.4%
8	O=C(Nc1ncc(Cc2ccc(C(F)(F)F)cc2)s1)c1ccc(-c2cccc([N+](=O)[O-])c2)o1	-22.6%

no.	SMILES	HPGD inh
9	O=C(NNC(=O)c1cc2cc3ccccc3nc2s1)c1cccc(C(F)(F)F)c1	-20.2%
10	Cc1ccc(S(=O)(=O)C(CCC(=O)N2CCOCC2)S(=O)(=O)c2ccc(C)cc2)cc1	-1.3%
11	Nc1[nH]ncc1C(=O)Nc1cccc(C(F)(F)F)c1	-3.0%
12	Cc1ccc(NCN2C(=O)c3ccccc3C2=O)c(C)c1	-10.0%
13	O=C(COC(=O)CCc1c[nH]c2ccccc12)Nc1cc([N+](=O)[O-])ccc1Cl	-5.6%
14	CC(=O)Nc1ccc(S(=O)(=O)NCc2cn3ccsc3n2)cc1	-7.2%
15	O=C(c1ccco1)N1CCC[C@@]2(CCN(Cc3nccs3)C2)C1	-0.4%
16	CCCCc1c2ccccc2nc2[nH]c3ccccc3c12	2.6%

no.	SMILES	HPGD inh
17	Cc1cccc(-n2nnnc2SCC(=O)c2cc(C)n(CC3CCCO3)c2C)c1 (centres undefined)	-9.8%
18	c1csc(-c2ccc3ccccc3n2)c1	-28.8%
19	COC(=O)CCSCC(=O)Nc1cc(C)on1	-4.2%
20	COC(=O)c1cc(NC(=O)CC2C(=O)NCCN2C(=O)c2ccccc2)cc(C(=O)OC)c1 (centres undefined)	-8.0%
21	CCOC(=O)c1c(C)nc(-c2ccccc2)nc1NC(C)=O	-5.8%
22	O=S(=O)(O)c1nc2ccccc2n1Cc1ccc(Cl)cc1Cl	-16.9%
23	COc1ccc(Cl)cc1NC(=O)CN(C)C(=O)CNC(=O)C12CC3CC(CC(C3)C1)C2	-11.7%
24	Cc1cccc(OCC(O)CN2CCN(C3CCCCC3)CC2)c1 (centres undefined)	-5.3%

no.	SMILES	HPGD inh
25	O=C(CN(C(=O)CSc1nc2ccccc2o1)c1ccccc1)NC1CCCCC1	-6.7%
26	CCCCNC(=O)c1ccc(CNc2c(N3CCC(C(=O)OCC)CC3)c(=O)c2=O)cc1	3.55µM*
27	Cc1ccc(OCC(=O)Nc2ccc(O)c(C(=O)O)c2)cc1C	?
28	CC(=O)NNC(=S)NC(=O)c1cccc([N+](=O)[O-])c1	28.2µM*
29	N#CCSCC(=O)Nc1ccc(Br)cc1	-1.2%
30	CCCn1nnnc1-c1ccc(Cl)cc1	-4.1%
31	COc1cccc(C(=O)SC2=NCCS2)c1	-6.0%
32	Cc1ccc(S(=O)(=O)NC(CC(=O)n2nc(C)cc2C)c2ccccc2)cc1 (centres undefined)	-8.3%

no.	SMILES	HPGD inh
33	COc1ccccc1N(CC(=O)NCCSc1ccccc1)S(C)(=O)=O	3.1%
34	Cn1c(=O)c2c(nc(N3CCc4ccccc4C3)n2Cc2ccc(Br)cc2)n(C)c1=O	-4.6%
35	c1cncc(-c2nnc(-c3cccs3)o2)c1	?
36	COc1ccc(S(=O)(=O)N2CCCC2C(=O)Nc2ccc(C)cc2)cc1 (centres undefined)	-2.0%
37	O=S1(=O)C[C@@H](O)[C@@H](Nc2ccc(Cl)cc2)C1	-14.1%
38	CN(Cc1ccccc1)C(=O)CSc1nc2ccccc2c(=O)n1Cc1ccco1	-26.4%
39	CCOC(=O)C1=C(C)NC(=O)NC1c1ccccc1Cl (centres undefined)	-10.2%
40	COc1ccccc1/C=C/CN1CCOCC1	-6.0%

no.	SMILES	HPGD inh
41	NC[C@H]1O[C@H](n2cnc3c(N)ncnc32)C[C@@H]1O	-10.8%
42	Cn1ncc(C#N)c1NC(=O)C1CC(c2c(F)cccc2Cl)=NO1 (centres undefined)	-15.7%
43	COC(=O)c1c(NC(=O)C2Cc3ccccc3C(=O)O2)sc2c1CCCC2 (centres undefined)	-6.9%
44	COc1ccc2c(c1OC)C(=O)OC2[C@H]1c2c(cc3c(c2OC)OCO3)CCN1C (some centres undefined)	-0.1%
45	CCOC(=O)CSc1cc(=O)n(CC)c2ccccc12	-23.4%
46	Cc1ccc(-c2[nH]nc3c2C(c2ccoc2)C(C#N)=C(N)O3)cc1C (centres undefined)	-22.3%
47	Cc1ccc(CNC(=O)Cc2cccs2)cc1	15.8µM*
48	CCC(CC)C1C(C#N)=C(N)Oc2cc(C)oc(=O)c21 (centres undefined)	-11.4%

no.	SMILES	HPGD inh
49	Cc1cccc(CSc2nn3c(=O)c(C)nnc3s2)c1	-18.2%
50	CC1CC2(CCCCC2)Nc2ccc3ccccc3c21 (centres undefined)	?
51	C=C(NC(=O)C(=C)NC(=O)c1csc(C2=N[C@@H]3c4csc(n4)[C@@H]4NC(=O)c5csc(n5)[C@@H]([C@](C)(O)[C@H](C)O)NC(=O)[C@@H]5CSC(=N5)/C(=C/C)NC(=O)[C@@H]([C@H](C)O)NC(=O)c5csc(n5)[C@]3(CC2)NC(=O)[C@@H](C)NC(=O)C(=C)NC(=O)[C@@H](C)NC(=O)[C@@H]([C@@H](C)CC)N[C@H]2C=Cc3c([C@H](C)O)cc(nc3[C@@H]2O)C(=O)O[C@H]4C)n1)C(N)=O	-11.0%
52	CC1(C(=O)NC(=S)NNC(=O)c2ccncc2)CCCCC1	-6.7%
53	Cc1ccc(Sc2nnc(-c3ccccc3)cc2C#N)cc1	1.9%
54	O=c1cc(N2CCCCC2)c(-c2ccccc2)nn1Cc1cccc(Cl)c1	-18.8%
55	O=S1(=O)CC/C(=N\O)c2ccccc21	-1.9%
56	COc1ccc(OC)c2c(C)cc(N3CCN(C(=O)c4ccc(Cl)cc4)CC3)nc12	?

cpd | Structure | HPGD inh
57 | O=C(Cn1c(COc2ccccc2)nc2ccccc21)Nc1cc(Cl)cc(Cl)c1 | 1.3%
58 | O=C(Cc1cccs1)NCc1ccccc1F | 25.1µM*
59 | CSc1nncc(-c2ccc(F)c(F)c2)n1 | -17.1%
60 | CC(=O)c1ccc2c(c1)CC(C)C(=O)N2C (centres undefined) | ?
61 | COC(CNC(=O)C(=O)NCC1OCCN1C(=O)c1ccc(Cl)cc1)OC (centres undefined) | -0.3%
62 | CCOC(=O)CC(=O)CSc1nc(-c2ccc3c(c2)OCO3)cc(C(F)(F)F)c1C#N | ?
63 | CCOC(=O)c1nn(-c2ccc(C)cc2)c(C)c1C(C)=O | -17.6%
64 | Cc1cc(C)n(-c2cc(N3CCN(C(=O)c4cccc(Br)c4)CC3)ccc2[N+](=O)[O-])n1 | -13.2%

cpd | Structure | HPGD inh
65 | CCc1nnc(NC(=O)CN2C(=O)c3ccccc3C2=O)s1 | -8.8%
66 | O=C(/C=C/c1cccc([N+](=O)[O-])c1)N1CCN(c2ccc(F)cc2)CC1 | -0.3%
67 | CCOC(=O)c1cnc(-n2nc(C)cc2C)nc1NCCO | -25.2%
68 | CN(C)CCn1c(C(=O)O)cc2ccccc21 | -11.0%
69 | CCn1c2ccccc2c2cc(NC(=O)COC(=O)c3cc(S(=O)(=O)N4CCCCC4)ccc3Cl)ccc21 | -11.9%
70 | CCc1ccc(C(c2c(C)nn(-c3ccccc3)c2N)c2c(C)nn(-c3ccccc3)c2N)cc1 | -25.1%
71 | CC1(OC(=O)c2cnc3ccccc3n2)C(=O)C=C2C=C(C3CC3)OC=C2C1=O (centres undefined) | -10.5%
72 | O=C(Nc1nncs1)c1ccc(S(=O)(=O)c2ccccc2)cc1 | -12.2%

cpd | Structure | HPGD inh
73 | O=C(c1ccco1)N1CCC2(CC1)CCN(c1ccncc1)CC2 | -7.9%
74 | COCCNc1ccnc(-c2c(C)noc2C)n1 | -4.7%
75 | COc1ccccc1-c1nnc(NC(C)=O)s1 | ?
76 | CCn1c(-c2csc3ccccc23)n[nH]c1=S | -21.3%
77 | COc1ccc(C(=O)NC(=S)NNC(=O)Cc2cccs2)cc1 | -5.8%
78 | Nc1cc(N)nc(SCC(=O)N2CCCCC2)n1 | 28.2µM*
79 | O=CN/C=C/c1cc(F)cc(F)c1F | -1.9%
80 | CCOc1ccccc1-n1cnc2cc(C(=O)NCc3ccco3)ccc21 | 15.8µM*

cpd | Structure | HPGD inh
81 | O=[N+]([O-])c1ccc(/C=N/N/C(=N/c2ccccn2)c2ccccn2)cc1 | 28.2µM*
82 | N#CCCN1CCN(C2=NC(=O)C(=C3CCCCC3)S2)CC1 | ?
83 | C/C(=C\C(=O)c1ccccc1)Nc1cccc(O)c1 | -10.6%
84 | Cc1c(NC(=O)C(C)OC(=O)[C@@H](NC(=O)c2ccccc2)C(C)C)c(=O)n(-c2ccccc2)n1C (some centres undefined) | -8.9%
85 | CCc1c(C)[nH]n(-c2ccc(Oc3ccccc3)c(S(=O)(=O)O)c2)c1=O | -18.4%
86 | CC1=C(C(=O)Nc2ccc(Cl)cc2)C(c2ccncc2)C(C#N)=C(SCC(N)=O)N1 (centres undefined) | -17.4%
87 | COc1cc(C(=O)NCC(=O)N/N=C/c2cccs2)cc(OC)c1OC | -6.3%
88 | CC1(C)CC2(CC(c3cccs3)c3cc(Cl)c(O)cc3O2)NC(=S)N1 (centres undefined) | -5.9%

cpd | Structure | HPGD inh
89 | O=C(c1cnsn1)N1CCN(c2ccccn2)CC1 | 0.1%
90 | CC(=O)Nc1ccc(NC(=O)CN(C)CCC#N)cc1 | -4.8%
91 | Nc1cc(-c2ccc(Cl)cc2)nn1S(=O)(=O)c1ccc(Cl)cc1 | -21.4%
92 | Cc1ccc(NC2=CC(=O)CC(C)(C)C2)c(N)c1 | -10.9%
93 | CCc1ccc(NC(=O)N(C2CCCCC2)C(C)c2cccnc2)cc1 (centres undefined) | 3.2%
94 | Cc1c(Cl)cnc(NC(=O)CSc2nncs2)c1Cl | ?
95 | CC1=CC(=O)C=C(C)C1=NOC(=O)c1cccc([N+](=O)[O-])c1 | -19.3%
96 | CC(C)Cn1cnc2c(c1=O)c1nc3ccccc3nc1n2Cc1ccc2c(c1)OCO2 | -17.8%

cpd | Structure | HPGD inh
97 | O=C(NCCN1CCN(c2ccccc2)CC1)C1CCN(S(=O)(=O)N2CCOCC2)CC1 | -3.4%
98 | O=C1CC(N2CCN(C(c3ccccc3)c3ccccc3)CC2)C(=O)N1Cc1ccc(N2CCCC2=O)cc1 (centres undefined) | -12.9%
99 | CC(=O)Nc1cccc(C(=O)OC(C(=O)c2ccc(C)cc2)c2ccccc2)c1 (centres undefined) | -18.6%
100 | Cc1ccc(CN(C)C(=O)C2CCCN2C(=O)c2cccs2)o1 (centres undefined) | -4.5%
101 | CC(C)N(Cc1nc(-c2ccc(Cl)cc2)no1)C(=O)C(c1ccccc1)c1ccccc1 | -7.6%
102 | Cc1oc(/C=N/NC(=O)CN(c2ccccc2Br)S(C)(=O)=O)cc1Br | -15.3%
103 | O=C(Nc1nc(-c2cc(Cl)sc2Cl)cs1)c1cccs1 | -20.7%
104 | OCC1OC(n2cnc3c(Cl)nc(Cl)nc32)C(O)C1O (centres undefined) | -6.1%

cpd | Structure | HPGD inh
105 | CCC1(C)NC(=O)N(CC(=O)Nc2sc3c(c2C(=O)OC)CCCCC3)C1=O (centres undefined) | -3.6%
106 | CCOC(=O)c1sc(NC(=O)c2ccccc2)cc1C | ?
107 | Cc1ccc(OCCC(=O)Nc2ccc(F)c(F)c2)cc1 | -2.9%
108 | CCCCCCOc1ccc(/C(N)=N/O)cc1 | -2.4%
109 | NC(=O)c1ccccc1NC(=O)CS(=O)(=O)Cc1ccccc1 | -24.1%
110 | Cc1ccc(-n2c(SCC(=O)Nc3ccc(N4CCOCC4)cc3)nc3ccccc3c2=O)cc1 | -8.5%
111 | CC(C)Cn1c(N)c(C(=O)CSc2ccc3c(c2)OCCO3)c(=O)n(C)c1=O | -7.2%
112 | CCOC(=O)c1sc(NC(=O)C(CC)Sc2nnc3c4ccccc4n(C(C)C)c3n2)nc1C (centres undefined) | -15.7%

cpd | Structure | HPGD inh
113 | COc1cccc(CNc2nc3nc(C)cc(=O)n3[nH]2)c1 | -7.0%
114 | Cn1c(=O)c(=O)n(C)c2cc(S(=O)(=O)N3CCOCC3)ccc21 | ?
115 | CCOC(=O)c1cnc(SCC)[nH]c1=O | -4.6%
116 | CCOC(=O)c1c(C)n(C)c2c(C)cc(O)c(OC(C)=O)c12 | -16.3%
117 | COc1ccccc1CN1CCN(C(=O)c2ccncc2)CC1 | -7.8%
118 | CCCCC(=O)N=c1sc2cc(S(C)(=O)=O)ccc2n1C | -2.5%
119 | COc1ccc(N(C)C(=O)c2onc3c2CCCC3)cc1 | -11.2%
120 | c1cc2c(nn1)CCc1nonc1-2 | 0.8%

cpd | Structure | HPGD inh
121 | O=C(Nc1ccc(N2CCN(C(=O)c3cccs3)CC2)c(Cl)c1)c1ccco1 | -5.2%
122 | Fc1ccc(OCc2nnc(SCCN3CCOCC3)o2)cc1 | 22.4µM*
123 | O=C(NNC(=O)c1ccc([N+](=O)[O-])cc1)c1ccncc1 | -0.6%
124 | Cc1cc(Cl)c(OCCCSc2nc(C)cc(=O)[nH]2)c(Br)c1 | -14.6%

# Screening data (PubChem BioAssay)
